Cruzain inh noDet: inhibitors of Trypanosoma cruzi cruzain without detergent; P25779; purified cruzain, Z-FR-AMC fluorescence, no detergent; Potency, µM, for the others: max response, negative = inhibition, actives largely listed as inhibitors; actives 2.3% (n = 200,000);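 also: plate controls were enzyme without inhibitor for no effect and buffer without enzyme for full effect; nearly all actives have a fitted effect of over 40% in size; top concentration of the series not given in the record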
Target sequence (P25779 123-467 limits assumed): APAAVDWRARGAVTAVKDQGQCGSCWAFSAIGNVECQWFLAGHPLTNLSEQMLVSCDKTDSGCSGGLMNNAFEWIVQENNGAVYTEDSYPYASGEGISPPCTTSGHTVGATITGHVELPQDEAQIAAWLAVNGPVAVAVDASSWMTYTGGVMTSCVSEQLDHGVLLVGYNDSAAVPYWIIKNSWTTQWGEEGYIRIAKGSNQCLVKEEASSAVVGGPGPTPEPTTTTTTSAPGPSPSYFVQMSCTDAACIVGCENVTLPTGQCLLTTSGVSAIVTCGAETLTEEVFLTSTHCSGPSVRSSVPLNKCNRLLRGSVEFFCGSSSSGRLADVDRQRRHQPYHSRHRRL
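Detergent-free condition (0.00005% Triton X-100) in acetate buffer pH 5.5 with DTT. 1.5 nM enzyme and compound were pre-mixed 15 min, then 2 uM Z-FR-AMC substrate added; reaction progress from fluorescence change between first and third reads (60 s).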
Lassa entry inh: Lassa virus entry inhibition; Potency, µM (series often up to 37.9 µM), for the others: top-dose activity change, negative = inhibition, actives largely listed as inhibitors; Lassa virus pseudotype entry inhibition, cell reporter; control for the full effect not named in the record; AID 540256; actives 1.2% (n = 300,000); active means well fitted inhibition curve with a large enough effect; inconclusive means small, poorly fitted or top-dose-only effect, or effect the other way; inactive means flat fitted curve, though single readings scatter; tested in HEK293 cells; also: % is scaled to controls: 0 for no effect and ±100 for the full control effect; nearly all actives have a fitted effect of over 50% in size; luciferase read-out
SARS PLP yeast: blocks SARS-CoV papain-like protease in a yeast assay. actives 0.19% (n = 330,000). Potency, µM (doses to about 32.9 µM), without a hit: at the top dose activity, positive = growth rescue. S. cerevisiae expressing SARS-CoV PLpro, growth rescue; control for the full effect not named in the record; active means well fitted rising curve with a large enough effect; inconclusive means small, poorly fitted or top-dose-only effect; inactive means no such curve, though single readings can be large or run the other way; also: 0% is about no effect; nearly all actives have a fitted effect of over 55% in size; growth read by luminescence after 48 h
RE007 growth inh: less growth of the S. pombe RE007 Vpr strain. S. pombe RE007 Vpr strain, BacTiter-Glo ATP luminescence, 24 h; control for the full effect not named in the record. Potency, µM (doses to about 92.2 µM), inactives show at the highest dose activity change, negative = less growth. actives 0.21% (n = 360,000). AID 651644; active = well fitted falling curve with a large enough effect; inconclusive = small, poorly fitted or top-dose-only effect; inactive = no such curve, though single readings can be large or run the other way;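 also: % is scaled to controls: 0 for no effect and ±100 for the full control effect; nearly all actives have a fitted effect of over 50% in size; the assay follows cell death caused by Vpr and the record does not say whether a fall means rescue or toxicity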
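Fission yeast RE007 carrying one integrated HIV-1 vpr copy, seeded at OD 0.01 in PMG+AL medium with 23 nL pinned compound. Grown 24 h at 30 degrees; viability read by BacTiter-Glo luminescence after 5 min.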
NS1 inh: inhibitors of influenza NS1 protein function; S. cerevisiae slowed by influenza A NS1, growth recovery by OD600; Potency, µM (top dose mostly 46.1 µM), for inactives: at the highest dose activity, positive = more growth; actives 0.4% (n = 270,000); active means well fitted rising curve with a large enough effect; inconclusive means small, poorly fitted or top-dose-only effect; inactive means no such curve, though single readings can be large or run the other way; also: nearly all actives have a fitted effect of over 50% in size
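In this qHTS, NS1 from influenza A is expressed in budding yeast, where it slows growth. Cells are switched from glucose to 2% galactose medium (pH 6.0, -URA), treated with compound, and growth recovery is read at OD600.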
StopGo reporter: FMDV 2A StopGo reporter, luciferase signal | AID 1159524 | human cells with a luciferase reporter of 2A StopGo recoding; control for the full effect not named in the record | actives 1.2% (n = 410,000) | Potency, µM (titrated, usually from 57.9 µM), for inactives: top-dose signal change, negative = less light; active = well fitted falling curve with a large enough effect; inconclusive = small, poorly fitted or top-dose-only effect; inactive = no such curve, though single readings can be large or run the other way; tested in HEK293T cells; also: % is scaled to controls: 0 for no effect and ±100 for the full control effect; nearly all actives have a fitted effect of over 45% in size; luciferase light after 4 h
Marburg entry inh: inhibitors of Marburg virus binding or cell entry. actives 1.8% (n = 300,000). Potency, µM (highest dose often 37.8 µM), for inactives: at the highest dose activity change, negative = inhibition, most hits filed as inhibitors. Marburg virus pseudotyped entry inhibition, cell reporter; control for the full effect not named in the record; about a third of the inactives were read at about 46 µM; active = well fitted inhibition curve with a large enough effect; inconclusive = small, poorly fitted or top-dose-only effect, or effect the other way; inactive = flat fitted curve, though single readings scatter; tested in HEK293 cells; about a fifth of its hits are not listed in these tables; also: % is scaled to controls: 0 for no effect and ±100 for the full control effect; luciferase read-out
Cruzain inh Det: cruzain (T. cruzi) inhibition with detergent; P25779; purified cruzain, Z-FR-AMC fluorescence, 0.01% Triton; Potency, µM, without a hit: max response, negative = inhibition, most hits filed as inhibitors; actives 0.43% (n = 200,000); AID 1478;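 also: plate controls were neutral wells for no effect and buffer without enzyme for full effect; nearly all actives have a fitted effect of over 40% in size; top concentration of the series not given in the record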
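Z-FR-AMC hydrolysis (2 uM substrate) by cruzain (1.5 nM) monitored kinetically at ex 360/em 450 nm after 15 min room-temperature compound exposure; 0.01% Triton X-100, pH 5.5, 5 mM DTT.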
* hit, by the source's call; ? = inconclusive; / = no result given; & = joins results of further samples; [ ] = remark or other dose. Unless noted, calls follow the shape of the dose curve; as a rule, active = well fitted curve in the direction sought with a large enough effect; inconclusive = small, poorly fitted or top-dose-only effect, or another doubt; inactive = no such curve, though single readings can be large; an effect the other way counts as inactive or inconclusive. Potency is read from the fitted curve at half-maximal effect. The order is random. Share with any hit: about 4.7%.

Every second line gives: Cruzain inh noDet | Lassa entry inh | SARS PLP yeast | RE007 growth inh | NS1 inh | StopGo reporter | Marburg entry inh | Cruzain inh Det
[1] Cc1ccc(C(NC(=O)NCCCN2CCOCC2)=C(Cl)Cl)cc1F
→ -2% | -28% | 0% | 0% | -4% | ? | ? | 3.4%
[2] O=C(COC(=O)CSc1ccccc1)NNC(=O)c1ccc([N+](=O)[O-])cc1
→ / | / | -2% | 2% | 15% | -2% | / | /
[3] COc1ccc(-c2cc(C(=O)N3CCN(c4ccccc4OC)CC3)no2)cc1
→ / | ? | 10% | -5% | 4% | 9% | ? | /
[4] COc1ccc(C(=O)NC2CC2)cc1OC1CCN(C/C=C/c2ccccc2)CC1
→ / | 9% | 1% | -6% | 1% | -19% | ? | /
[5] C=CCSc1nnc(NC(=O)c2nc(SCC)ncc2Cl)s1
→ 0% | 0% | -1% | 11% | -30% | 9% | 2% | -6.4%
[6] Nc1nc(SCC(=O)NC2CCCCCC2)[nH]c(=O)c1-c1ccccc1
→ 1% | -5% | -1% | 9% | 2% | -14% | 8% | -1.9%
[7] CCOC(=O)c1c(CN2CCCCC2)n(C)c2cc(Br)c(OC)cc12
→ 0% | ? | -3% | -6% | -1% | 0% | ? | -6.0%
[8] CC(NS(=O)(=O)c1ccc(CCC(=O)NCC2CCCO2)cc1)c1ccccc1 (stereo not given)
→ -14% | -2% | -16% | 5% | 3% | -16% | 25%[46.1 µM] | 2.0%
[9] O=C(Nc1c[nH]c(=O)[nH]c1=O)c1cc([N+](=O)[O-])cc([N+](=O)[O-])c1
→ / | / | -1% | -6% | 1% | -11% | / | /
[10] O=C(c1cc(COc2ccccc2)on1)N1CCCC(CN2CCOCC2)C1 (stereo not given)
→ / | / | 0% | 3% | 0% | 17% | / | /
[11] CC(C)=NNc1nc(-c2ccc([N+](=O)[O-])cc2)cs1
→ / | -16% | -3% | 153% | 11% | 17% | 17% | /
[12] Cc1ccc[n+](CC(=O)c2ccc(Br)cc2)c1C
→ / | / | 1% | 8% | 18% | -1% | / | /
[13] COc1cc(OC)cc(-c2nc3nc(C)c(CCC(=O)Nc4cc(F)ccc4F)c(C)n3n2)c1
→ 16% | 19%[46.1 µM] | / | / | / | -19% | -1%[46.1 µM] | 4.7%
[14] CCc1ccc2c(c1)C(=O)C(=O)N2CC(=O)Nc1ccc(NC(=O)c2ccccn2)cc1
→ / | -29% | 0% | -2% | 8% | 21% | -24%[46.1 µM] | /
[15] CS(=O)(=O)N1N=C(c2ccccc2)CC1c1ccc2c(c1)OCO2 (stereo not given)
→ -7% | ? | 7% | -11% | 9% | 0% | ? | -6.8%
[16] COc1ccc(-c2cc(C(=O)N3CCN(c4ccccc4F)CC3)c3ccccc3n2)c(OC)c1
→ / | ? | -7% | -23% | 15% | -16% | ? | /
[17] COC(=O)C(NC(=O)CCc1c(C)nc2ncnn2c1C)C(C)C (stereo not given)
→ 1% | 8% | -5% | 6% | -4% | 12% | -2% | 0.4%
[18] CCCCC(NC(=O)Cc1c(C)c2cc3c4c(oc3cc2oc1=O)CCCC4)C(=O)O (stereo not given)
→ / | ? | 1% | 0% | 11% | 14% | 19% | /
[19] O=C(N/N=C/c1cc2ccccc2nc1Cl)c1ccncc1
→ / | -1% | 0% | -3% | / | 0% | 0%[14.2 µM] | /
[20] Cc1cn(C2OC(COC(=O)c3ccccc3)C(OC(=O)c3ccccc3)C2OC(=O)c2ccccc2)c(=O)[nH]c1=O (stereo not given)
→ ? | ? | -5% | 4% | ? | -21% | ? | -1.4%
[21] Cc1cc(=O)oc2cc(Oc3ncccc3[N+](=O)[O-])ccc12
→ / | 28% | 2% | ? | / | 0% | 17%[46.1 µM] | /
[22] O=C1Nc2ccccc2N(O)N1c1ccc(S(=O)(=O)N2CCCCCC2)cc1
→ 6% | 0% | 8% | 16% | 5% | -8% | 3% | 0.6%
[23] O=C(CCNS(=O)(=O)c1ccc(Br)s1)Nc1ccc(Cl)cc1
→ 2% | -6% | 0% | 2% | -1% | / | -6% | -4.7%
[24] CCOc1ccccc1C(=O)N1CCN(C(c2ccccc2)c2ccccc2)CC1
→ 8% | -29% | -7% | -7% | 7% | / | -24% | -10%
[25] CNS(=O)(=O)c1cccc(C(=O)OCC(=O)N2CCCC2)c1
→ / | 12% | -1% | -15% | 9% | 27% | -14%[46.1 µM] | /
[26] CCc1nc2cc(C)nn2c2nc3ccccc3n12
→ 5% | ? | 2% | -11% | -31% | -11% | 8% | 4.0%
[27] Cc1onc(-c2c(F)cccc2Cl)c1C(=O)Nc1nnc(-c2ccccc2)s1
→ 6% | 27% | -1% | 19% | 3% | -10% | -2% | -5.4%
[28] Cc1ccc(NC(=O)C2C3CCCC2C3c2ccccc2)cc1 (stereo not given)
→ ? | 3% | 8% | 4% | 11% | -4% | 8% | 0.9%
[29] COCCN=C1N[C@@H](c2ccccc2)C(C(=O)OC)=C(C)N1Cc1ccccc1
→ / | / | 5%&13% | 11% | 17%&15% | -16% | / | /
[30] O=C(CCc1nc2ccccc2c(=O)[nH]1)NCc1ccccn1
→ / | 11%[46.1 µM] | 0% | -5% | / | 7% | 14%[46.1 µM] | /
[31] CN(C)C(=O)C(NC(=O)c1ccccc1)=C(Cl)Cl
→ / | / | -2% | 8% | 4% | 3% | / | /
[32] O=C(Nc1nc2ccc(S(=O)(=O)N3CCCC3)cc2s1)C1CCCCC1
→ -23% | -25% | 7% | -1% | -17% | -9% | ? | -3.2%
[33] COc1ccc2nc3ccccc3nc2c1N
→ / | -5% | -1% | ? | 7% | 21% | ? | /
[34] CCCn1c(=S)[nH]c2ccccc2c1=O
→ / | ? | 0% | 23% | -2% | 7% | -4%[46.1 µM] | /
[35] CCOC(=O)N1CCN(C(=O)CN(C)S(=O)(=O)c2ccc(Cl)cc2)CC1
→ / | / | 0% | 18% | -2% | 1% | 23%[46.1 µM] | /
[36] Cc1ccn(CC(=O)N2CCCC(N3CCN(c4ccc(F)cc4)CC3)C2)n1 (stereo not given)
→ / | / | 4% | -12% | -1% | -10% | / | /
[37] CNC(=O)c1ccc(-c2ccc(Cl)c(Cl)c2)s1
→ / | -9%[46.1 µM] | -24% | -15% | / | 19% | ? | /
[38] CC(C)Cn1c(S(=O)(=O)O)nc2ccccc21
→ / | 5%[46.1 µM] | 1% | -10% | -5% | -1% | 15%[46.1 µM] | /
[39] O=C(/C=C/c1ccco1)NC(=S)N1CCCCC1
→ / | 0% | 3% | -8% | 5% | 0% | 19% | /
[40] O=C(Nc1cccc(Cl)c1)c1ccc(F)c(S(=O)(=O)NCc2ccc3c(c2)OCO3)c1
→ -8% | ? | -15% | 4% | 14% | -19% | ? | -4.9%
[41] CCOc1ccc(C(=O)Nc2cc(-c3nc4ccccc4s3)ccc2OC)cc1
→ 6% | 8%[46.1 µM] | / | / | / | -1% | 15%[46.1 µM] | -0.1%
[42] O=C(OCCN1CCCCC1)c1ccc(O)cc1
→ -3% | 6% | 7% | 3% | 14% | 7% | 19% | 1.5%
[43] O=S(=O)(NC1CCCCC1N1CCN(c2ccccc2F)CC1)c1ccccc1 (stereo not given)
→ / | / | -8% | -7% | -13% | ? | / | /
[44] CC(=O)N1CCn2c3c(c(=O)c4cc(C)ccc42)CCC31 (stereo not given)
→ 14% | 1% | 7% | 0% | 6% | -8% | -11% | -7.7%
[45] CC(NC(=O)c1ccc2c(=O)n3c(nc2c1)CCC3)c1ccc(S(N)(=O)=O)cc1 (stereo not given)
→ / | -1% | 4% | 5% | / | -1% | ? | /
[46] O=C(Oc1ccc(C(=S)N2CCC(O)CC2)cc1)c1ccc(Cl)cc1
→ / | 5%[46.1 µM] | 1% | 11% | -2% | 12% | 20%[46.1 µM] | /
[47] COc1ccc2c(Cl)c(C(=O)NN)sc2c1
→ -2% | ? | -15% | -11% | 8% | / | -25% | -4.0%
[48] Cc1ccc(S(=O)(=O)Nc2ccc(N3CCCCC3)cc2)cc1
→ / | ? | -18% | 4% | / | -3% | ? | /
[49] CO[C@H]1O[C@H](CBr)[C@@H](OC(=O)c2ccccc2)[C@H](O)[C@H]1O
→ / | ? | / | 8% | / | 8% | 3% | /
[50] COc1ccccc1NC(=O)N1CCOc2ccccc21
→ 5% | 6%[46.1 µM] | / | / | / | 5% | / | -8.7%
[51] COc1ccc(/C=N/N(C(C)=O)c2nc(-c3ccc(C)cc3)cs2)cc1
→ -3% | ? | 0% | 29% | 6% | 0% | ? | -0.6%
[52] Fc1ccc(SCCc2ccccn2)cc1
→ / | 0%&1% | 1%&0% | -3%&3% | 2%&6% | 34%&47%[activator] | 0%&5%[46.1 µM] | /
[53] COc1cc(NC(=O)c2ccc3c(c2)OCCO3)ccc1NC(=O)c1ccccc1Cl
→ / | ? | -3% | -7% | 17% | -10% | -20%[46.1 µM] | /
[54] CCCCNC(=O)[C@H]1C[C@H]1[C@@H](O)[C@H](CO)NC(=O)[C@H](CC(C)C)NC(=O)OC(C)(C)C
→ / | / | 2% | 0% | -8% | -20% | / | /
[55] Cn1c(SCC(=O)c2ccc(O)c(O)c2)nnc1-c1cccs1
→ / | / | -1% | -11% | 0% | 45%[activator] | / | /
[56] CC(=O)Nc1nc2n(n1)C(c1ccccc1)C=C(c1ccccc1)N2 (stereo not given)
→ 0% | -1% | 2% | 5% | 16% | / | -5% | -2.4%
[57] O=C(NCCC1CCCCN1S(=O)(=O)c1cccs1)C(=O)Nc1ccc(F)cc1F (stereo not given)
→ / | ? | 0% | -4% | / | ? | ? | /
[58] Cc1ccc(NC(=O)c2c(Cl)nc3ccccn23)cc1
→ / | ? | -6% | -10% | -1% | 29% | 10%[46.1 µM] | /
[59] CCOC(=O)C1C(=O)NC(N2CCOCC2)=NC1C(C)C (stereo not given)
→ -2% | 1% | -1% | 26% | 5% | -19% | -13% | 1.9%
[60] COc1ccc(CNC(=O)CSc2n[nH]c(-c3ccc(OC)cc3)n2)cc1
→ -9% | ? | / | / | / | -13% | / | 2.3%
[61] O=C(N/N=C/c1ccco1)c1cc(-c2cccc3ccccc23)n[nH]1
→ -5% | -16% | -20% | -5% | -52% | 0% | 2% | -9.0%

High-throughput results (PubChem BioAssay)
